Screens: PubChem BioAssay, Broad Institute
AF4-AF9 inh: MLL-AF4/AF9 protein interaction inhibition; P42568; AlphaScreen, biotin-AF4 peptide binding to FLAG-AF9; inhibition, % at 10 µM; 350,000 compounds, 0.47% hits;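 active = every replicate reaching a set inhibition limit, whatever the replicate mean, cut at about 25% in these data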;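 also: 0% = plate neutral control median and 100% = total signal loss; the record names both 10 and 1 µM as test concentration; the first replicate is given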
Target sequence (P42568 whole entry, looked up): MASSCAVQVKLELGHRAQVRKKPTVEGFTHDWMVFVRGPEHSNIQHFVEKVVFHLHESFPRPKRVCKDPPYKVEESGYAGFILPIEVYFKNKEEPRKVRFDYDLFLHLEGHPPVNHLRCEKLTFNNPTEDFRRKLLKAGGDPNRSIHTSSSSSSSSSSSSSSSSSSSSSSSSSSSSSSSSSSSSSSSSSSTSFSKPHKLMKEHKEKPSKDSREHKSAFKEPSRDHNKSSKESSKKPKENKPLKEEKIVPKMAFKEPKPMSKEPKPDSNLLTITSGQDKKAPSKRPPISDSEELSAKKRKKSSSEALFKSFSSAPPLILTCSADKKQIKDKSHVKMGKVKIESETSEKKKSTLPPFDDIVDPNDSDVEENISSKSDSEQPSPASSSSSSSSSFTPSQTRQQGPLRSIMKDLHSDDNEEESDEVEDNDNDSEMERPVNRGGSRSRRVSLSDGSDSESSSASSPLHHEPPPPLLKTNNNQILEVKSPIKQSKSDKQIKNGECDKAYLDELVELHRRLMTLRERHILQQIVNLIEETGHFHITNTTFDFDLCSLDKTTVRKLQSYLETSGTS
* marks the source's active call; other numbers are inactive results; & = joins results of further samples.

SMILES	AF4-AF9 inh
C[C@@H]1CN([C@H](C)CO)C(=O)c2cccc(NS(=O)(=O)c3cccs3)c2O[C@@H]1CN(C)Cc1ccc2c(c1)OCO2	7.2
CC(C)(C)[S@](=O)N1Cc2cc(C(=O)NCc3ccccc3F)nc(-c3cccc(-c4ccncc4)c3)c2[C@@H]1CCO	1.6
O=C(C[C@@H]1CC[C@@H]2[C@H](COC[C@@H](O)CN2Cc2ccccc2F)O1)N1CCc2ccccc2C1	0.4
C[C@H](CO)N1C[C@H](C)[C@H](CN(C)Cc2ccc(F)cc2)Oc2cc(C#Cc3ccccn3)ccc2S1(=O)=O	1.0
CO[C@@H]1CN(C)C(=O)c2ccc(NS(=O)(=O)c3ccccc3F)cc2OC[C@H](C)NC[C@@H]1C	-4.3
O=C(Nc1cccc(Cl)c1)Nc1nnc([C@@H]2C[C@H](O)[C@@H](CO)O2)s1	0.6
C[C@H]1CN([C@@H](C)CO)C(=O)c2cc(C#Cc3cccc(F)c3)cnc2O[C@H]1CN(C)C(=O)C1CC1	-0.8
CN(C)CC(=O)N[C@H]1CC[C@H](CCNC(=O)Nc2ccc(F)cc2)O[C@H]1CO	8.1
CO[C@@H]1CN(C)C(=O)c2cc(NC(=O)Cc3ccccc3)ccc2OC[C@@H](C)N(CCc2ccccc2)C[C@H]1C	-0.2
COc1ccc(S(=O)(=O)N(C)C[C@@H]2Oc3ccc(NC(=O)C4CC4)cc3C(=O)N([C@H](C)CO)C[C@H]2C)cc1	1.3
O=C(Nc1ccccc1F)N1CC(=O)N2[C@@H](CO)[C@H](c3ccc(-c4cccnc4)cc3)[C@@H]2C1	-9.1
COC(=O)C1=C(C)N(C)C(=NCc2ccc(OC)cc2)NC1c1ccc(Cl)cc1 (stereo not given)	1.8
CO[C@@H]1CN(C)C(=O)c2cc(NC(C)=O)ccc2OC[C@@H](C)N(Cc2ccccn2)C[C@@H]1C	1.5
CCCNC(=O)C[C@H]1CC[C@H]2[C@@H](COc3ccc(NC(=O)CC)cc3C(=O)N2C)O1	-1.0
CNC[C@H]1Oc2ncc(-c3cncnc3)cc2C(=O)N([C@@H](C)CO)C[C@H]1C	-0.6
Cc1ccc(S(=O)(=O)Nc2ccc3c(c2)C(=O)N([C@@H](C)CO)C[C@H](C)[C@@H](CN(C)C(=O)c2ccccc2)OCCCC[C@H](C)O3)cc1	-1.2
C[C@@H]1CN([C@@H](C)CO)C(=O)c2cc(N(C)C)ccc2O[C@@H](C)CCCCO[C@@H]1CN(C)S(=O)(=O)c1ccccc1	2.9
C[C@H](CO)N1C[C@H](C)[C@H](CN(C)CC2CCCCC2)Oc2c(NS(=O)(=O)c3ccc(Cl)cc3)cccc2C1=O	-0.4
COCCNC(=O)C1(C)CCCN(C(=O)c2ccccc2F)C1 (stereo not given)	-21
O=C(C[C@H]1C[C@H]2c3cc(NC(=O)NC4CCCCC4)ccc3O[C@H]2[C@H](CO)O1)NCc1cccnc1	0.4
O=C(C[C@H]1C=C[C@@H](NC(=O)Nc2cccc(F)c2)[C@H](CO)O1)NCC1CCCCC1	0.8
CCCNC(=O)N(C)C[C@H]1Oc2cc(C3=CCCC3)ccc2S(=O)(=O)N([C@@H](C)CO)C[C@H]1C	-1.9
C[C@@H]1CN([C@@H](C)CO)C(=O)c2cc(Br)cnc2O[C@H]1CN(C)Cc1ccc2c(c1)OCO2	-2.0
CC(C)NC(=O)N(C)C[C@@H]1Oc2ccc(NC(=O)C3CC3)cc2CC(=O)N([C@@H](C)CO)C[C@H]1C	-3.9

Molecules from the list above that have four or more nitrogen atoms, in the order listed:
SMILES	AF4-AF9 inh
CC(C)(C)[S@](=O)N1Cc2cc(C(=O)NCc3ccccc3F)nc(-c3cccc(-c4ccncc4)c3)c2[C@@H]1CCO	1.6
O=C(Nc1cccc(Cl)c1)Nc1nnc([C@@H]2C[C@H](O)[C@@H](CO)O2)s1	0.6
CN(C)CC(=O)N[C@H]1CC[C@H](CCNC(=O)Nc2ccc(F)cc2)O[C@H]1CO	8.1
O=C(Nc1ccccc1F)N1CC(=O)N2[C@@H](CO)[C@H](c3ccc(-c4cccnc4)cc3)[C@@H]2C1	-9.1
CO[C@@H]1CN(C)C(=O)c2cc(NC(C)=O)ccc2OC[C@@H](C)N(Cc2ccccn2)C[C@@H]1C	1.5
CNC[C@H]1Oc2ncc(-c3cncnc3)cc2C(=O)N([C@@H](C)CO)C[C@H]1C	-0.6
O=C(C[C@H]1C[C@H]2c3cc(NC(=O)NC4CCCCC4)ccc3O[C@H]2[C@H](CO)O1)NCc1cccnc1	0.4
CC(C)NC(=O)N(C)C[C@@H]1Oc2ccc(NC(=O)C3CC3)cc2CC(=O)N([C@@H](C)CO)C[C@H]1C	-3.9

The results go on.
SMILES	AF4-AF9 inh
C[C@@H]1CCCCO[C@H](CN(C)Cc2ccc3c(c2)OCO3)[C@H](C)CN([C@H](C)CO)C(=O)c2cc(NS(=O)(=O)c3ccc(Cl)cc3)ccc2O1	13&6.1
C/C=C/c1ccc(C2[C@@H]3CN(C(=O)Nc4ccc(F)cc4)C[C@H]2N3)cc1 (stereo not given in full)	1.2&5.6
[N-]=[N+]=Nc1ccccc1C[C@]1(C(=O)N2CCCCC2)N=C(c2ccc(OCCCO)cc2)O[C@H]1c1ccccc1	10.0
c1cc(-c2ccc(C3[C@H]4CNC[C@@H]3N4Cc3nccs3)cc2)ccn1 (stereo not given in full)	1.0&18
C[C@@H]1CCCCO[C@H](CN(C)Cc2ccc(C(=O)Nc3ccccc3N)cc2)[C@@H](C)CN([C@H](C)CO)C(=O)c2cc(NS(=O)(=O)c3ccccc3)ccc2O1	-2.8
COCC(=O)N1C[C@H](C)[C@H](OC)CN(C)C(=O)c2ccc(NC(=O)c3ccc(F)cc3)cc2OC[C@H]1C	-1.8
C[C@H]1CN([C@@H](C)CO)C(=O)c2cc(NS(=O)(=O)c3cn(C)cn3)ccc2O[C@@H]1CN(C)Cc1ccc(Cl)c(Cl)c1	0.1
COc1ccc(S(=O)(=O)N[C@H]2CC[C@@H](CCn3cc(-c4ccccc4F)nn3)O[C@@H]2CO)cc1	2.2
O=C(NCC[C@H]1CC[C@H](NC(=O)C2CCC2)[C@@H](CO)O1)c1ccc(F)cc1	-2.9
CC(C)CC#Cc1ccc2c(c1)O[C@@H](CN(C)CC1CCOCC1)[C@H](C)CN([C@H](C)CO)S2(=O)=O	8.1
C[C@H]1CN([C@@H](C)CO)S(=O)(=O)c2ccc(C#Cc3ccncc3)cc2O[C@@H]1CN(C)C(=O)C1CCCCC1	5.7
COCCNC(=O)C1CCCN(C(=O)c2cc(C(C)(C)C)nn2C)CC1 (stereo not given)	-6.7
CCCC#Cc1ccc2c(c1)O[C@H](CN(C)C(=O)c1ccncc1)[C@H](C)CN([C@@H](C)CO)S2(=O)=O	-7.5
N#C[C@@H]1N[C@H](CO)[C@@H]1c1ccc(C#Cc2ccccc2F)cc1	0.2
C[C@@H]1CN([C@H](C)CO)C(=O)c2cc(NC(=O)CCCN(C)C)ccc2O[C@H]1CN(C)Cc1ccncc1	-3.5
O=C(N[C@@H]1CC[C@@H](CCNS(=O)(=O)c2ccc(Cl)cc2)O[C@H]1CO)c1cnccn1	-2.1
O=C(C[C@H]1CC[C@@H](NC(=O)CN2CCOCC2)[C@@H](CO)O1)NCc1cccc(F)c1	0.0
CCC(=O)N1C[C@@H](C)[C@@H](OC)CN(C)C(=O)c2cc(NC(=O)C3CC3)ccc2OC[C@@H]1C	0.5
COc1ccc(CN(C)C[C@@H]2Oc3ccc(NC(=O)Nc4c(C)noc4C)cc3C(=O)N([C@@H](C)CO)C[C@@H]2C)cc1	-1.5
CCNC(=O)C[C@H]1CC[C@@H]2[C@@H](COc3ccc(NC(=O)c4ccc(F)cc4)cc3C(=O)N2C)O1	-2.0
C=CCN=C1NC(c2ccccc2)C(C(=O)OC)=C(C)N1Cc1cccc(C(F)(F)F)c1 (stereo not given)	2.7
CNC[C@@H]1Oc2c(NC(=O)Nc3c(C)noc3C)cccc2C(=O)N([C@H](C)CO)C[C@@H]1C	-3.9
CCC(=O)NC[C@H]1[C@@H](c2ccc(-c3ccc(OC)cc3)cc2)[C@@H](CO)N1C(C)=O	-2.5
OC[C@@H]1[C@@H](c2ccc(-c3cccnc3)cc2)[C@@H]2CN(CC3CCOCC3)CCCCN12	5.1
COc1cccc(-c2ccc3n(c2=O)C[C@@H]2[C@@H](CO)[C@H](C(=O)NCC4CC4)N(C)[C@H]32)c1	-2.5
Cc1ccccc1S(=O)(=O)NCC[C@@H]1CC[C@H](NC(=O)C2CC2)[C@@H](CO)O1	-1.1
COc1cccc(-c2ccc3c(c2)[C@@H]2[C@@H](CCN2C(=O)CN2CCOCC2)[C@H](CO)N3)c1	-0.3
C[C@H]1CN([C@@H](C)CO)C(=O)c2cc(NC(=O)C3CC3)ccc2O[C@H]1CN(C)C(=O)Nc1ccc2c(c1)OCO2	-5.5
C[C@H](CO)N1C[C@H](C)[C@H](CN(C)S(=O)(=O)c2ccccc2)Oc2ccc(NC(=O)Cc3ccccc3)cc2CC1=O	-0.1
CSc1ccc(OC2(C)CCN(Cc3ccc(-c4ccccn4)cc3)C2)cc1 (stereo not given)	2.6
COCCOC(=O)N1C(=O)[C@@]2(c3cc(C#CCCO)ccc31)[C@H](C(=O)NC[C@H](O)c1ccccc1)[C@H]1C(=O)O[C@H](c3ccccc3)[C@H](c3ccccc3)N1[C@@H]2c1ccc(O)cc1	-1.6
O=C(C[C@@H]1C[C@H]2c3cc(NC(=O)C4CCC4)ccc3O[C@H]2[C@H](CO)O1)NCc1ccncc1	-2.6
CCCNC(=O)N(C)C[C@H]1Oc2ncc(-c3ccncc3)cc2C(=O)N([C@H](C)CO)C[C@H]1C	-4.2
COc1ccc(CN(C)C[C@@H]2Oc3ccc(NS(=O)(=O)c4cccs4)cc3C(=O)N([C@@H](C)CO)C[C@H]2C)cc1	-19
COc1ccc(C2CCCCCN2C(=O)C2CCN(S(=O)(=O)c3cccc(C(C)=O)c3)CC2)cc1 (stereo not given)	-4.3
CC(C)NC(=O)N(C)C[C@@H]1Oc2ncc(C#CCc3ccccc3)cc2C(=O)N([C@@H](C)CO)C[C@H]1C	-0.2
N#Cc1ccc(-c2ccc([C@@H]3[C@@H](CO)N4C(=O)CN(C(=O)C5CCCC5)C[C@@H]34)cc2)cc1	-12
CC(C)CC#Cc1ccc2c(c1)O[C@H](CN(C)Cc1ccccn1)[C@@H](C)CN([C@@H](C)CO)S2(=O)=O	6.7
COc1ccc(NC(=O)Nc2cccc3c2O[C@H](CN(C)S(=O)(=O)c2ccc(Cl)cc2)[C@H](C)CN([C@@H](C)CO)C3=O)cc1	-0.9
COCCCN(C(=O)CSCC(=O)Nc1ccc(C)cc1)c1c(N)n(Cc2ccccc2)c(=O)[nH]c1=O	-1.9
CO[C@H]1CN(C)C(=O)c2cc(NC(=O)C3CC3)ccc2OC[C@@H](C)N(C(=O)C2CCCCC2)C[C@H]1C	2.8
C[C@H](NC(=O)C[C@H]1CC[C@@H]2[C@H](COC[C@H](O)CN2C(=O)Nc2cc(Cl)cc(Cl)c2)O1)c1ccccc1	-3.0
CCOc1ccc2nc(S(=O)(=O)NC(=O)C3(C)CCN3C(=O)c3cc(C)n(C)n3)sc2c1 (stereo not given)	0.8
COCC(=O)Nc1ccc2c(c1)OC[C@H](C)N(CC1CCCCC1)C[C@H](C)[C@H](OC)CN(C)C2=O	0.4
COc1ccc(CN(C)CCCn2cnc3c(OCc4ccccc4)ncnc32)cc1	4.7
COc1ccc(SSc2ccc(OC)cc2C(=O)O)c(C(=O)O)c1	5.7
COc1ccc(NC(=O)Nc2cccc3c2O[C@@H](CN(C)Cc2ccncc2)[C@@H](C)CN([C@H](C)CO)C3=O)cc1	-0.4
COc1ccc(NC(=O)N2CCCCN3[C@@H](CO)[C@H](c4ccc(C#CCC(C)C)cc4)[C@@H]3C2)cc1	7.6
CN1C(=O)c2cc(NC(=O)c3ccno3)ccc2OC[C@H]2O[C@@H](CC(=O)NC3Cc4ccccc4C3)CC[C@@H]21	1.7
Cc1ccc2nc(C3CCCCC3)c(Cc3ccccc3)n2c1	-3.2
C[C@@H]1CN([C@H](C)CO)S(=O)(=O)c2ccc(/C=C/c3ccccc3)cc2O[C@@H]1CN(C)C(=O)Nc1cccc(F)c1	-1.2
CCC(=O)Nc1ccc2c(c1)OC[C@@H](C)N(C(=O)NC(C)C)C[C@@H](C)[C@H](OC)CN(C)C2=O	-12
C[C@H](CO)N1C[C@H](C)[C@@H](CN(C)C(=O)C2CCCCC2)Oc2cc(C3=CCCC3)ccc2S1(=O)=O	1.8
CC(C)C[C@@H]1COc2cccc(N3CCC[C@@H]3CO)c2S(=O)(=O)N1	-1.1
COc1ccccc1CNC(=O)C[C@@H]1CC[C@@H]2[C@H](COC[C@@H](O)CN2C(=O)Nc2ccc(Cl)cc2)O1	-0.8
O=C(NC1CCCC1)N1CCCCN2[C@@H](CO)[C@@H](c3ccc(-c4cncnc4)cc3)[C@@H]2C1	-2.3
O=C(Cc1ccncc1)NCC[C@@H]1CC[C@@H](NC(=O)C2CCCC2)[C@@H](CO)O1	-3.2
O=C(OC1CC2CC1[C@H]1CCCCN1C2=O)N1CCN(S(=O)(=O)c2ccccc2)CC1 (stereo not given in full)	0.4
C[C@H](CO)N1C[C@H](C)[C@H](CN(C)C(=O)CCCN(C)C)OCCCC[C@H](C)Oc2ccc(NS(C)(=O)=O)cc2C1=O	-3.1
O=C(c1ccccn1)N1CC[C@@H]2[C@@H](CO)Nc3ccc(-c4ccc(F)cc4)cc3[C@@H]21	1.3
COc1ccc(CCn2c(=N)c(C(=O)NCc3ccco3)cc3c(=O)n4ccccc4nc32)cc1OC	0.1
O=S(=O)(c1ccccc1F)N1CC[C@H]2[C@H](CO)Nc3ccc(-c4ccccc4F)cc3[C@H]21	-1.8
CNC(=O)OCc1snc(-c2ccccc2)c1COC(=O)NC	0.3

Not all compounds are listed, so the mix of outcomes need not match the whole.
